TAR Tat displ: TAR RNA-Tat peptide displacers, HIV-1, primary screen, biochemical, FRET, FAM/TAMRA-labeled Tat; HIV-1 TAR RNA, Tat peptide displacement FRET; stronger effect = higher value; z-score (concentration not given with the values); 100,000 compounds, 0.6% hits; AID 1259389, 2018;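 further: score is relative to mean and SD of negative controls; some compounds called inactive have numbers as strong as hits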
CDC25B-CDK2 inh: primary biochemical HTRF screen for blockers of M-phase inducer phosphatase 2 binding to CDK2/cyclin A. P30305+P24941. HTRF CDC25B-CDK2/CyclinA binding, anti-His/anti-Flag; stronger effect = higher value. z-score (test concentration not listed). 94,000 compounds, 0.72% hits. AID 1259370, 2018;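 further: score is relative to mean and SD of negative controls; strong numbers were not always called active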
* marks the source's active call; other numbers are inactive results; / = no result given.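 How the source made its calls: active means z-score from 3 up in half or more of its runs; inactive means the rest.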

SMILES | TAR Tat displ | CDC25B-CDK2 inh
C=CCSc1nc(=O)c2c(n1C)NC(=O)CC2c1ccc(OC)c(Br)c1 (configuration not stated) | 1.3 | -0.87
O=C(Cn1ncc2c1-c1ccccc1OC2)N1CCN(C(=O)c2ccco2)CC1 | 0.1 | -0.35
COc1ccc(-c2nccnn2)cc1 | 1.2 | -0.02
CCCOC(=O)C1=C(C)Nc2nnnn2C1c1cc(Br)ccc1OCCC (configuration not stated) | -0.24 | 0.49
O=C1C2CCCCC2C(=O)N1c1ccc2[nH]c(=S)sc2c1 (configuration not stated) | / | -0.71
O=C(O)c1cccc2c3c([nH]c12)CCCC3 | 6.2 | -1.4
CC(=O)N(c1ccc(C)cc1)C1C=CS(=O)(=O)C1 (configuration not stated) | 1.2 | -1.6
NC(=O)c1nc(-c2cccc(Cl)c2)nc2c1[nH]c(=O)n2-c1ccc(F)cc1 | 1.7 | /
Cc1cc(C)c(C)c(Oc2coc3cc(OCC(=O)OCC(C)C)ccc3c2=O)c1 | -0.14 | -1
Cc1cc(C)c(-c2n[nH]c3c2C(c2ccc(Cl)cc2)N(Cc2ccco2)C3=O)c(O)c1 (configuration not stated) | 1.9 | -0.16
Cc1cccc(C2=NS(=O)(=O)c3cc(S(=O)(=O)N4CCCCC4)ccc3N2)c1 | 0.55 | /
O=S(=O)(Nc1cccc(Cl)c1)c1ccc(-c2cnc(C3CC3)o2)cc1 | 1.4 | /
CCSc1nnc(NC(=O)c2cccnc2)s1 | / | -0.57
Nc1nc(N2CCOCC2)nc(Nc2ccc(F)cc2)c1[N+](=O)[O-] | 1.6 | /
O=C1CC(Cc2ccccc2)C(=O)N1c1cccc(Cl)c1 (configuration not stated) | 0.85 | -0.45
COc1ccc(S(=O)(=O)Nc2cc(N3CCCS3(=O)=O)ccc2C)cc1 | 0.26 | /
Cc1nnsc1C(=O)Nc1ccccc1SCc1noc(-c2cccs2)n1 | / | -0.55
COc1ccc(-n2nc3c(c2NC(=O)c2ccc4c(c2)OCO4)CS(=O)(=O)C3)cc1 | 0.9 | /
COCCOC(=O)c1c(C)oc2ccc(OC(=O)c3ccc([N+](=O)[O-])o3)cc12 | / | -0.85
CCOC(=O)c1c(CN2CCOCC2)oc2ccc(OC)cc12 | -0.04 | -2.3
Cc1nn(-c2nncc(-c3ccccc3)n2)c2c1C(c1cc(F)cc(F)c1)CC(=O)N2 (configuration not stated) | 4.5 | -0.42
COc1ccc(C2/C(=C(\O)c3ccc(F)cc3)C(=O)C(=O)N2CCN(C)C)cc1 (configuration not stated) | -0.48 | -1.7
CCOC(=O)c1sc(N2C(=O)c3oc4ccc(C)cc4c(=O)c3C2c2ccc(OC)cc2)nc1C (configuration not stated) | -0.08 | -1.3
Fc1ccc(-c2cc(-c3nc4c5c(ncn4n3)CCC5)[nH]n2)cc1 | 0.99 | -0.37
Cc1ccc(C(=O)NCCNS(=O)(=O)c2ccccc2[N+](=O)[O-])cc1 | / | -5.3
Cc1cc(C)cc(NC2c3ccccc3C(=O)N2c2cccnc2)c1 (configuration not stated) | 0.3 | -0.29
O=C(c1[nH]nc2c1COc1ccccc1-2)N1CCN(c2ncccn2)CC1 | 2.1 | /
CCCn1nc(-n2cnnc2)c(NS(=O)(=O)c2ccc(C)cc2)c1C | 0.07 | -2.7
CC(CCc1ccco1)NC(=O)c1cc2c(s1)-c1ccccc1OC2 (configuration not stated) | -0.46 | -1.8
COC(=O)c1noc(C)c1C(=O)/C=C/N1CCCCC1 | / | -1.8
CC(C)(C)NC(=S)N/N=C/C=N/NC(=S)NC(C)(C)C | / | -1.2
COc1ccccc1C(c1c(C)[nH][nH]c1=O)c1c(C)[nH][nH]c1=O | -0.4 | -0.1
O=C(NCCCN1CCCCC1)c1cnc2sc3c(n2c1=O)CCCC3 | 0.87 | /
CS(=O)(=O)Cc1noc(-c2cc(C(F)(F)F)cc(C(F)(F)F)c2)n1 | / | -1.2
O=C(CCC(=O)N1CCSc2ccccc21)N1CCN(c2cccc(Cl)c2)CC1 | 1.7 | /
OCc1ccc2c(c1)OCCOCCOc1cc(CO)ccc1OCCOCCO2 | 2.6 | -1.7
COc1ccc(Nc2nc(SC)nc3c2CCC3)cc1 | 1.8 | -1.4
O=c1[nH]cnc2cc(Cl)ccc12 | / | -2.2
CC(C)N=C(N)/N=C(\N)Nc1ccc(Cl)cc1 | 0.64 | /
O=C(Nc1cccc2c1CCCC2)c1cc(C2CC2)[nH]n1 | 0.3 | /

Two of these compounds in a different format:
| canonical_smiles | TAR Tat displ | CDC25B-CDK2 inh |
| --- | --- | --- |
| CC(C)(C)NC(=S)N/N=C/C=N/NC(=S)NC(C)(C)C | / | -1.2 |
| COc1ccccc1C(c1c(C)[nH][nH]c1=O)c1c(C)[nH][nH]c1=O | -0.4 | -0.1 |

(next part)
SMILES | TAR Tat displ | CDC25B-CDK2 inh
O=c1cc(-c2ccccc2)[nH]c2nc(Cl)ccc12 | / | -1.8
Cn1c(-c2ccc3c(c2)OCO3)cnc1NCc1ccccc1 | -0.12 | -0.82
CCSc1nn2c(=O)cc(COc3ccc(C)cc3)nc2s1 | -1.6 | -2
COc1cccc(CSc2nc3ccncc3n2Cc2ccccc2F)c1 | 0.63 | -0.36
O=C(COC(=O)c1cc2ccccc2s1)Nc1cccc2ccccc12 | / | -4.2
CN1C(=O)C(O)(C2COC(C)(C)CC2=O)c2cc(Br)ccc21 (configuration not stated) | 0.87 | -1.5
O=C(NC1CCCCC1)N1Cc2cccn2-c2ccccc21 | 0.93 | /
CCCCn1cnc2c(oc3nc4c(cc32)COC(C)(C)C4)c1=O | 1.3 | /
O=C(Nc1cc(F)ccc1F)N1Cc2cccn2-c2ccccc21 | 1.6 | /
CCCCCOC(=O)Cc1c(O)c2ccccc2[nH]c1=O | 2.4 | /

Rewritten with values under each structure: part of the list above.
Each structure is followed by: TAR Tat displ	CDC25B-CDK2 inh
O=C(COC(=O)c1cc2ccccc2s1)Nc1cccc2ccccc12
→ /	-4.2
CN1C(=O)C(O)(C2COC(C)(C)CC2=O)c2cc(Br)ccc21 (configuration not stated)
→ 0.87	-1.5
O=C(NC1CCCCC1)N1Cc2cccn2-c2ccccc21
→ 0.93	/

Next section:
SMILES | TAR Tat displ | CDC25B-CDK2 inh
CCS(=O)(=O)Nc1cccc(-c2ccc(S(C)(=O)=O)nn2)c1 | -0.46 | /
Cc1cc2ncn(CC(O)COc3ccc(Cl)cc3)c2cc1C (configuration not stated) | 1.1 | -0.68
Cc1cc(NCc2ccc(F)cc2)n2nc(-c3ccco3)nc2n1 | -1.4 | /
O=C(NCCC1=CCCCC1)C1CCCN(c2cnccn2)C1 (configuration not stated) | 0.09 | -0.56
Cc1ccc2oc(C3Nc4ccccc4NC4=C3C(=O)CC(c3cccs3)C4)cc(=O)c2c1 (configuration not stated) | 0.52 | -0.77
CC(=O)Nc1cc(C)c(NS(=O)(=O)c2ccc(C)cc2)c(C)c1 | / | -1.4
CCN(CC)c1c2c(nc3nncn13)CCC2 | 1.5 | -2.3
COC(=O)c1ccc(OC)c(CN2CCN(Cc3ccc(F)cc3Cl)S2(=O)=O)c1 | -0.43 | /
Cc1cc(C)n(Cc2c(C(=O)NC3CCS(=O)(=O)C3)noc2C)n1 (configuration not stated) | -0.16 | /
O=C(NCCc1c[nH]c2ccccc12)C1CCN(c2nc3cccnc3s2)CC1 | 1 | /
N=C1C(c2nc3ccccc3s2)=C(O)CN1c1ccc(C(=O)O)cc1 | 2.8 | 0.23
Cc1cc(N2C(=O)C3CCCCC3C2=O)ccc1Br (configuration not stated) | 2 | /
CCOc1ccc(-n2nnc(-c3nc(-c4ccccc4)no3)c2N)cc1 | 1.3 | /
COC(=O)CSC1CS(=O)(=O)c2cc([N+](=O)[O-])ccc21 (configuration not stated) | / | -0.66
Cc1csc(NC(=O)CSc2nc(=O)n(Cc3ccccn3)c3c2CCC3)n1 | 0.28 | /
Cc1ccc(OC(=O)CSc2nnc(-c3cccs3)o2)c(C)c1 | -1.2 | -3.5
O=C(CSCc1cnn(-c2ccccc2)c1-n1cccc1)NCCc1c[nH]c2ccccc12 | 0.66 | -0.94
CCCCN(Cc1ccccc1)Cc1nnc(-c2ccccc2)o1 | 1 | 1.2
CC1=C(c2ccc(C)c(C)c2)S(=O)(=O)N=C1N1CCN(C)CC1 | 0.01 | -1.2
O=S(=O)(c1cnc[nH]1)N1CCN(c2cccc(Cl)c2)CC1 | 0.41 | -0.37

Exported with values under each structure: part of the list above.
Values run as follows: TAR Tat displ	CDC25B-CDK2 inh
> O=C(CSCc1cnn(-c2ccccc2)c1-n1cccc1)NCCc1c[nH]c2ccccc12
    0.66	-0.94
> COc1ccccc1C(c1c(C)[nH][nH]c1=O)c1c(C)[nH][nH]c1=O
    -0.4	-0.1
> CC(C)N=C(N)/N=C(\N)Nc1ccc(Cl)cc1
    0.64	/
> CCN(CC)c1c2c(nc3nncn13)CCC2
    1.5	-2.3
> CCS(=O)(=O)Nc1cccc(-c2ccc(S(C)(=O)=O)nn2)c1
    -0.46	/
> NC(=O)c1nc(-c2cccc(Cl)c2)nc2c1[nH]c(=O)n2-c1ccc(F)cc1
    1.7	/

More structures.
SMILES | TAR Tat displ | CDC25B-CDK2 inh
COc1ccc(C2CC(=O)C3=C(C2)NC(=O)CC3c2cccc(Oc3ccccc3)c2)cc1 (configuration not stated) | 0.06 | -1.3
COc1ccc2[nH]cc(S(=O)(=O)c3ccc(C)c(C)c3)c(=O)c2c1 | 0.57 | -1.5
CCOC(=O)CNC(=O)Cn1c(-n2nc(C)cc2C)nc2c(c1=O)CCCC2 | 2.4 | /
CCOC(=O)c1noc2ncnc(N3CCC(C)CC3)c12 | -0.59 | /
CCOc1ccc(OCC)c(S(=O)(=O)N2CCOCC2)c1 | 2.5 | 0.42
O=c1c2cnn(-c3ccc(Cl)cc3)c2nc(-c2ccco2)n1-c1ccc2c(c1)OCCO2 | -0.65 | /
CCOC(=O)C1=NNC(C(=O)c2ccccc2)C1c1ccc(OC)cc1 (configuration not stated) | 0.48 | -0.73
CC1CCCCC1NC(=O)C1CCC(CNc2c(N3CCCC3)c(=O)c2=O)CC1 (configuration not stated) | / | -1.8
Clc1cccc(CSc2ccc(-c3ccncc3)nn2)c1 | 0.58 | /
CC(=O)c1csc(CS(=O)(=O)Cc2cccc(C(F)(F)F)c2)n1 | / | -1.1
CCN(c1ccccc1)S(=O)(=O)c1ccc(-c2n[nH]c(C)c2C)s1 | 1.7 | /
CC1(C)CC(=O)C2=C(C1)Nc1cc(C(=O)c3ccccc3)ccc1NC2c1ccccc1 (configuration not stated) | -0.92 | -2
COc1ccc(OC)c(C2C(C(=O)Nc3ccc(Br)cn3)=C(C)NC3=C2C(=O)CCC3)c1 (configuration not stated) | 1.5 | /
CCOC(=O)CC1NCCc2c1[nH]c1ccc(OC)cc21 (configuration not stated) | / | 0.38
CCc1cccc(N2C(=O)Nc3ccccc3S2(=O)=O)c1 | 1.9 | /
COc1ccc(-c2nc3ccccn3c2Nc2ccc3c(c2)OCCO3)cc1 | -0.69 | -2.3
O=C(CSc1ccc2nnc(-c3ccc(F)cc3)n2n1)Nc1nccs1 | / | -16
Cn1c2ccccc2c2nnc(SCc3ccccc3)nc21 | 1.1 | -1.7
Fc1ccc(-c2n[nH]c(=S)n2CC2CCCO2)cc1 (configuration not stated) | / | -1.2
CCOc1ccccc1C1CC(=O)NC(SCc2cccc3ccccc23)=C1C#N (configuration not stated) | -1.4 | -0.66
Cc1ccc(N2C(=O)c3cccnc3C2Nc2ccc(F)cc2C)cc1 (configuration not stated) | 2.6 | /
CCC(=O)Nc1nc(C)c(-c2csc(Nc3cccc(C(=O)O)c3)n2)s1 | / | -1.6
COC(=O)CN1C(=O)COc2ccc(S(=O)(=O)N3CCCCC3)cc21 | 0.43 | /
COc1cccc(-c2nc3c(C#N)c[nH]n3c2NC2CCCCC2)c1OC | 0.21 | -2
Clc1ccc(-c2cc3c(nn2)Nc2ccccc2N3)cc1 | -0.62 | -0.7
Cn1cnc(S(=O)(=O)NCCN2CCNC2=O)c1 | / | -0.72
CCn1c(=O)sc2cc(NC(=O)C3CC3)ccc21 | 1.3 | 1.6
Cc1ccc(NS(=O)(=O)c2cc3[nH]c4c(c3cc2C)C(=O)CCC4)cc1F | 0.08 | /
COc1cccc(-c2n[nH]c3c2C(c2cccc(O)c2)NC3=O)c1 (configuration not stated) | -0.01 | 0.05
CCOC(=O)C(CC)n1nc(CC)n2c(cc3oc(C)cc32)c1=O (configuration not stated) | 0.58 | 0.56
CC1(C)CCC[C@@]2(C)C1CC[C@@]1(C)OCC[C@@H]12 (some centres not stated) | / | -1.2
CC(C)c1ccc(S(=O)(=O)c2c[nH]c3ccc(Cl)cc3c2=O)cc1 | 1.6 | -1.5
CCn1nc(C)c(CCNC(=O)Nc2ccc(Br)c(C)c2)c1C | -0.41 | /
O=C(NCCCN1CCOCC1)C1CCCN(S(=O)(=O)N2CCCCC2)C1 (configuration not stated) | 2.6 | /
CC(C)(C)NCC(=O)Nc1c2c(nc3c1CCC3)CCC2 | / | 0.63
CC(C)CCn1c(CN2CCN(c3ccccc3F)CC2)nc2c1c(=O)n(C)c(=O)n2C | 1.1 | -0.68
O/N=C1\CCSc2ccc(F)cc21 | / | -1.7
COc1cccc(OCCCCNCC2CCCO2)c1 (configuration not stated) | 0.35 | -0.96
CC1CCCC(Nc2c(-c3ccccc3)c(=O)c2=O)C1C (configuration not stated) | 2.4 | /
O=C1CSC(=Nc2ccc(Cl)cc2)N1Cc1cccnc1 | / | -1.2
O=C(Nc1nn2c(-c3cccs3)nnc2s1)c1cccs1 | 1.6 | -1.5
Cc1cccc(OCc2cc(=O)n3c(C)csc3n2)c1 | 1.2 | -1.5
CC(=O)N=C1SC2=CSC(c3ccccc3)N2N1C(C)=O (configuration not stated) | / | -0.03

Screening data: PubChem, Center for Chemical Genomics, University of Michigan
